High-throughput results (PubChem)
TRPML1 agonist: human mucolipin-1 channel agonism | TRPML1-expressing cells, Ca2+ dye fluorescence, FDSS; host cell line not named in the record; reference of the full effect not given here | actives 0.12% (n = 410,000) | Q9GZU1 | activation, % (concentration not given with the values); in the data active = activation above about 50%; inconclusive = about 30% to 50%; inactive = below about 30%; note: 0% is about no effect; the text of the record puts the active cut at 80%
Target sequence (Q9GZU1 whole entry, looked up): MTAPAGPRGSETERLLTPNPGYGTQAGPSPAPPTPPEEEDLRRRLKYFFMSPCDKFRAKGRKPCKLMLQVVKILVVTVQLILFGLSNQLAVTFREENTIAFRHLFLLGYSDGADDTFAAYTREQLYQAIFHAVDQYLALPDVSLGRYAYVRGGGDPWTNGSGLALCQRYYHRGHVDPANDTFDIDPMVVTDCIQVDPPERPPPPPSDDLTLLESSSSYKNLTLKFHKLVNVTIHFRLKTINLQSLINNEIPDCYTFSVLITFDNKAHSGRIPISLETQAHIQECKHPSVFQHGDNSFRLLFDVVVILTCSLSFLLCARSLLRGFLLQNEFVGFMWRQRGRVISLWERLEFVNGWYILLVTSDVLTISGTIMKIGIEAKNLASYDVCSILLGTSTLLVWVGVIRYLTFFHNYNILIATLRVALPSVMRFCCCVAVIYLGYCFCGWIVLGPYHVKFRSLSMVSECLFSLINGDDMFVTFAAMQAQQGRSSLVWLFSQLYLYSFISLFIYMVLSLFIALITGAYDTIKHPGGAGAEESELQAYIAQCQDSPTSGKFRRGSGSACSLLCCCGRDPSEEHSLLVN
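Calcium fluorescence on an FDSS kinetic reader gave the read-out. Tet-induced TRPML1-DL cells were plated overnight, dye-loaded (Ca8 with quencher, 45-90 min, room temperature, dark), then read 110 s after compound addition, and again 110 s after 4uM final 54-4 (EC80).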
ClpP mod: qHTS Assay for Activators of ClpP | actives 1.9% (n = 340,000) | ATP-dependent Clp protease proteolytic subunit (Bacillus subtilis (strain 168)), P80244 | Potency, µM (titrated, usually from 57.5 µM), for inactives: top-dose activity change, negative = active | purified B. subtilis ClpP, FRET peptide cleavage, 20 min; active = well fitted falling curve with a large enough effect; inconclusive = small, poorly fitted or top-dose-only effect; inactive = no such curve, though single readings can be large or run the other way; note: potency is the fitted concentration of half-maximal effect; the source files actives as falling curves though it sought activators and does not explain the sign; nearly all actives have a fitted effect of over 65% in size; many hits overshoot -100%
Target sequence (P80244 whole entry, looked up): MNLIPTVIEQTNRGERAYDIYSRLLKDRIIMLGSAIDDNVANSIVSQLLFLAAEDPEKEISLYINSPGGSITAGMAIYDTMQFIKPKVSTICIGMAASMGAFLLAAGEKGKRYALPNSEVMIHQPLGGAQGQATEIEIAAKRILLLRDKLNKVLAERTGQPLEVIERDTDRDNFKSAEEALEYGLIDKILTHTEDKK
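FRET quenching reversal measured ClpP activation: 10 microg/mL B. subtilis ClpP at pH 8 with the FRET-FV decapeptide, read at 430 nm after 320 nm excitation. The 20-min minus 0-min signal was scaled between DMSO/no-enzyme wells and ADEP (5.8 microM final).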
TRPML1 inh: human mucolipin-1 channel inhibition; Q9GZU1; TRPML1-inducible cells, Ca2+ dye fluorescence, FDSS; active compounds read low; inhibition of EC80 agonist-evoked calcium signal; activity change, negative = inhibition, % (test concentration not listed); actives 0.02% (n = 390,000); in the data active means activity change below about -50%; inconclusive means about -30% to -50%; inactive means above about -30%;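 note: stimulus is agonist 54-4 at its EC80 concentration; % is set by controls: 0 for no effect and ±100 for the full control effect; compound concentration not given in the record; the text of the record puts the active cut at -80%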
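Tet-induced TRPML1-DL cells loaded with Ca8 no-wash calcium dye were read kinetically on FDSS. Compound addition was followed by EC80 agonist 54-4 (4 uM final); inhibition was read over 110 s.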
Menin MLL FP FL: displaces fluorescein MLL peptide from human menin; Fluorescence polarization, fluorescein-MLL peptide displacement from menin; FP activity change, % at 61.4 µM; 290,000 tested, under 10 active; inconclusive = falling polarisation curve, or a change in total fluorescence; inactive = total fluorescence flat and polarisation flat or rising; no compound was filed as active; the % refers to the polarisation; negative = inhibition;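 note: % of control where 0% means no effect; inhibitors lower the polarisation; unlabelled MLL peptide was the positive control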
gsp antag: antagonizes gsp, the McCune-Albright syndrome mutation | gsp-mutant cells, cAMP HTRF, 30 min; control for the full effect not named in the record | Potency, µM (doses to about 76.9 µM), without a hit: top-dose activity change, negative = inhibition, usual class: inhibitors | actives 0.4% (n = 340,000) | AID 624288; active = falling curve of any shape with a large fitted effect; inconclusive = falling curve, mostly with a smaller effect; inactive = flat or rising curve; cell line not stated here;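 note: intracellular cAMP measured with PDE inhibitor Ro 20-1724 present during compound exposure; potency is the fitted concentration of half-maximal effect; % is set by controls: 0 for no effect and ±100 for the full control effect; nearly all actives have a fitted effect of over 65% in size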
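Cells, 2000/well, grown 16–24 h in DMEM 10% FBS with 0.5 mg/ml G418, then compounds plus […] (300 uM addition stock), 30 min at 37C. cAMP read by HTRF (cAMP-d2 and anti-cAMP antibody-K in lysis buffer) after 30 min RT.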
gsp ag: agonists of gsp mutant (McCune-Albright syndrome); actives 0.13% (n = 340,000); gsp mutant cells, cAMP HTRF, 30 min; control for the full effect not named in the record; Potency, µM (top dose mostly 76.9 µM), for the others: at the highest dose activation (cAMP increase), actives largely listed as activators; active = well fitted activation curve with a large enough effect; inconclusive = small, poorly fitted or top-dose-only effect, or another doubt; inactive = no such curve, though single readings can be large or run the other way; cell line not stated here;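 note: phosphodiesterase inhibitor Ro 20-1724 added with compounds to block cAMP breakdown; potency is the fitted concentration of half-maximal effect; nearly all actives have a fitted effect of over 60% in size; about a fifth of the inactives were tested at one dose only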
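Cells in DMEM/10% FBS with G418 were pretreated with compounds in DMSO plus […] (300 uM stock) for 30 min at 37C. cAMP was measured by HTRF (cAMP-d2 plus anti-cAMP antibody-K) after 30 min at room temperature.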
* = called active by the depositor; ? = inconclusive; / = not tested or not shown; & = joins results of further samples; [ ] = remark or other dose.

SMILES	TRPML1 agonist	ClpP mod	TRPML1 inh	Menin MLL FP FL	gsp antag	gsp ag
COc1ccc(N2C(=O)C(CC(=O)O)S/C2=N\N=C\c2cccs2)cc1 (stereo not drawn)	-0.1	/	-7	-3.9	-10%	-7%
O=C(Cc1ccc2c(c1)OCCO2)Nc1cc(C(F)(F)F)ccc1N1CCOCC1	1.7	-0.3%	7	/	-10%	-3%[15.4 µM]
CCC(=O)c1ccc(-c2ccccc2)cc1	-0.3	-4.4%	-7	6.1	-1%	0%
c1ccc(Cc2nnc3n2N=C(c2ccccc2)CS3)cc1	0.4	/	3	6.2	-8%	-54%[inhibitor]
CS(=O)(=O)N(CCc1ccccc1)CC(=O)N1CCN(Cc2ccccc2)CC1	-0.2	-5.9%	-15	-1.6	?	2%
O=C(CN(Cc1ccco1)C(=O)c1ccc(Cl)cc1)Nc1ccc(Cl)c(Cl)c1	-0.3	1.0%	-13	2.6	10%	0%
Clc1ccc(-c2ccc(/C=N/Nc3cc(N4CCOCC4)nc(N4CCOCC4)n3)o2)cc1	0.5	7.9µM*	58	-4.4	-4%	-15%
CC(C)C[C@H](NC(=O)N1CCn2c1nc1ccccc12)C(=O)NCc1ccccc1	0.6	-1.2%	15	-2.5	-5%	-42%[inhibitor]
O=C(NCCCl)NNc1c(Cl)cc(Cl)cc1Cl	-0.2	/	2	5.5	6%	2%[15.4 µM]
Cn1c(CCNC(=O)c2ccccc2)nc2cc(NC(=O)c3ccco3)ccc21	-0.2	-2.2%	0	-1.4	-15%	-45%[inhibitor]
CNc1ccccc1	0.3	-1.7%	-2	/	-3%	/
CCOC(=O)c1c(NC(=O)CSc2nc3ccccc3s2)sc(C(C)=O)c1C	-0.4	-6.3%	-11	9.7	-25%	6%
Cc1ccc(N(CC(=O)NCc2ccc(F)cc2)C(=O)c2ccco2)cc1C	0.6	/	3	2.0	/	-2%[15.4 µM]
O=c1ccc(-c2ccccc2)nn1Cc1ccc(F)cc1	0.7	-15%	-18	0.3	-2%	?
O=C(CCCNS(=O)(=O)c1cccc2nsnc12)NCc1ccccc1	0.8	0.1%	-5	2.6	-4%	-11%
CCCCNc1ccc2nsnc2c1[N+](=O)[O-]	-0.4	1.6%	12	6.4	20%	0%
COc1ccc(C(=O)n2nc(C)cc2C)cc1OC	2.2	-7.3%	-11	-0.6	-1%	-42%[inhibitor]
CC(C)Cn1c(N)c(C(=O)COC(=O)c2cc(-c3ccccc3)nc3ccccc23)c(=O)n(C)c1=O	0.5	-6.3%	21	-1.8&-0.1	8%	-5%
COc1ccc2[nH]c(=O)c(CN(C(=O)c3cccnc3)c3cccc(C)c3)cc2c1	/	3.7%	/	1.8	-5%	-4%
COc1ccc(CNC(=O)CS(=O)Cc2nc(-c3ccc(C)cc3)oc2C)cc1 (stereo not drawn)	1.4	-9.9%	5	3.6	-23%	?

Next part, starting with the last two of the part before.
SMILES	TRPML1 agonist	ClpP mod	TRPML1 inh	Menin MLL FP FL	gsp antag	gsp ag
COc1ccc2[nH]c(=O)c(CN(C(=O)c3cccnc3)c3cccc(C)c3)cc2c1	/	3.7%	/	1.8	-5%	-4%
COc1ccc(CNC(=O)CS(=O)Cc2nc(-c3ccc(C)cc3)oc2C)cc1 (stereo not drawn)	1.4	-9.9%	5	3.6	-23%	?
Cc1ccc(CSCC(=O)N(C)CC(=O)Nc2c(Cl)cccc2Cl)cc1	-1.1	1.1%	-3	/	-11%	?
CN(C)/C=C/c1onc(-c2ccccc2Cl)c1C#N	-0.2	/	-20	19	11µM*	-2%[15.4 µM]
CCNc1nc(SCc2ccccc2)nc(N2CCOCC2)n1	-0.1	-0.8%	9	-1.3	-9%	-1%
CCN(CC)c1ccc(NC(=O)COC(=O)Cc2ccsc2)cc1	0.9	0.4%	-11	/	-7%	8%
CCOc1ccc(C(C(=O)Nc2ccc(F)cc2)N(C(=O)Cn2nnc3ccccc32)C2CC2)cc1 (stereo not drawn)	-0.4	0.3%	3	3.3	0%	1%
O=C(NC(=S)Nc1ccc(S(=O)(=O)Nc2nccs2)cc1)c1ccccc1F	-0.5	-2.2%	-8	6.1	-11%	-2%[15.4 µM]
C=CCn1c(Cc2ccc(OC)cc2)nnc1SCC(=O)c1cccc([N+](=O)[O-])c1	0.4	-0.3%	1	1.9	-16%	0%
O=C(NNC(=O)c1ccncc1)c1ccncc1	-0.1	-0.9%	25	3.3	12%	-25%
Cc1ccc(S(=O)(=O)N/N=C\c2cn(CC(N)=O)c3ccccc23)cc1C	-0.1	0.1%	25	1.9	-5%	-27%
CCCS(=O)(=O)N1CCCC(C(=O)NCCOC)C1 (stereo not drawn)	0.7	1.2%	-16	/	/	/
O=C(O)c1cccc2c1C(=O)N(C1CCCCC1)C2	0.4	-1.9%	7	1.5	2%	-32%[inhibitor]
COc1ccc(C2C(C#N)=C(N)Nc3nc4ccccc4n32)cc1 (stereo not drawn)	0.2	-5.2%	7	-1.5	6%	0%
N#CCC(=O)N/N=C\c1ccccc1OC/C=C/c1ccccc1	-0.2	-3.8%	0	/	?	19%
O=C(O)c1sccc1Oc1ccc(NS(=O)(=O)c2cccc(F)c2)cc1	0.9	/	-17	1.1	6%	10%
Cc1ccc2cc(N)ccc2n1	-0.1	/	2	-7.3	8%	-10%[15.4 µM]
CC1CCc2sc3c(c2C1)c(=O)n(CC(=O)O)c(=O)n3Cc1ccc(Cl)cc1 (stereo not drawn)	/	-3.2%	/	3.3	-20%	5%
O=C(NC1CCSc2ccccc21)c1ccc(C(F)(F)F)cc1 (stereo not drawn)	0.0	/	12	11	6%	0%[15.4 µM]
COc1ccc(N2C(=O)C3C(C2=O)C2C=CC3C23CC3)c(OC)c1 (stereo not drawn)	1.3	1.7%	10	-1.3	9%	7%
CCOCCCNC(=O)CN1C(=O)COc2ccc(S(=O)(=O)N3CCCC3)cc21	3.1&-0.1	0.2%&-1.3%	8&-13	/	8%	0%
COc1cccc(C2CC(C(F)(F)F)n3ncc(C(=O)Nc4c(C)n(C)n(-c5ccccc5)c4=O)c3N2)c1 (stereo not drawn)	1.6	-3.5%	22	1.1	-2%	-17%
CC(SCC(=O)Nc1ccc(F)cc1)c1nc2ccccc2c(=O)[nH]1 (stereo not drawn)	-0.6	-6.9%	-6	0.1	2%	-70%[inhibitor]
COc1ccccc1/C=C/C=N/n1c(-c2ccccn2)n[nH]c1=S	-0.7	1.9%	4	5.0	-15%	1%
Cc1c(OC(C)C(=O)NCCCN2CCOCC2)ccc2c1oc(=O)c1ccccc12 (stereo not drawn)	-0.6	3.9%	-2	5.6	-1%	26%
Cc1ccc(NC(=O)c2sccc2C)cc1S(=O)(=O)N(C)C	-0.6	0.0%	0	2.5	11%	11%
COc1ccc(NS(=O)(=O)c2ccc(O)c(NC(=O)c3cc4c(C)nn(-c5ccc(F)cc5)c4s3)c2)cc1	0.4	9.1%	12	/	-25%	7%[15.4 µM]
COc1ccc(-c2ccc(C(=O)Nc3cccc(N(C)C)c3)c3occc23)c(C)c1	-0.8	28µM*	53	/	/	/
COc1cc(/C=C2\SC(=Nc3c(C)n(C)n(-c4ccccc4)c3=O)NC2=O)ccc1O	2.9	1.0%	15	?	-9%	?
CSc1nnc2c3ccccc3n(Cc3ccccc3)c2n1	0.8	-0.6%	19	-0.6	-16%	?
O=C(N1CCOCC1)N(Cc1ccco1)CC1CCCO1 (stereo not drawn)	1.0	-1.3%	-5	1.6	-1%	14%
O=S(=O)(NCc1cccnc1)c1cccc2nsnc12	0.1	1.2%	17	4.2	15%	?
O=C1COc2ccc(C(=O)COC(=O)C3CCN(S(=O)(=O)c4cccs4)CC3)cc2N1	0.5	-2.9%	8	1.8	-8%	-20%
COc1cccc(NC(=O)[C@@H]2CCCN2S(=O)(=O)c2cccc3cccnc23)c1	-1.2	-1.1%	-1	/	1%	-37%
COc1ccc(C(=O)NCC(C)NC(=O)c2ccc(OC)c(OC)c2)cc1OC (stereo not drawn)	-0.6	-0.8%	4	/	1%	23%[15.4 µM]
CC1(NCc2ccc(Cl)cc2)COP(=O)(NCc2ccccc2)OC1 (stereo not drawn)	-0.3	38%	6	/	1%	-40%[inhibitor]
CCC(=O)N1c2ccc(S(=O)(=O)NCc3ccc(F)cc3)cc2CC1C (stereo not drawn)	2.8	-0.1%	26	/	/	/
COc1cc(C(=O)Nc2ccc(O)cc2)ccc1OC(C)=O	0.1	-1.2%	-8	0.0	13%	?
O=C1CCCN1CC1CCCN(Cc2nc(COc3ccccc3)no2)C1 (stereo not drawn)	-0.5	/	-10	1.3	5%	-1%
O=C(CN1CCN(c2ccccc2)CC1)Nc1cccc([N+](=O)[O-])c1	0.9	/	11	-4.3	6%	8%
Cc1noc(Cn2c(=O)c3cc4c(cc3n(CC(=O)Nc3ccccc3Br)c2=O)OCO4)n1	2.0	11µM*	-4	/	/	/
COc1cc(OC)cc(C(=O)NC(=S)Nc2nc(-c3cc4ccccc4o3)cs2)c1	0.5	0.6%	39	1.4	12%	?
CCC(C)(C)NC(=O)COc1ccc(OCc2ccccc2)cc1	-0.2	/	9	2.1	8%	-12%[15.4 µM]
COc1ccc(CCNC(=O)C2CC(=O)N(CCc3ccc(C)cc3)C2)cc1OC (stereo not drawn)	-0.6	-0.4%	7	-1.0	-12%	-5%
O=S(=O)(c1ccccc1)N1CCC(n2nnc3cc(F)ccc32)CC1	-0.4	-1.0%	1	-0.9	-8%	-17%
CCOc1nc(C)ccc1-c1noc(-c2ccccn2)n1	-0.8	-12%	22	1.4	2%	?
CC12CCC(C(=O)N3CCN(C(c4ccccc4)c4ccccc4)CC3)(OC1=O)C2(C)C (stereo not drawn)	0.7	-2.7%	0	2.3	-9%	-53%[inhibitor]
Cc1nnc(SCc2ccc(CC(=O)O)cc2)o1	-0.5	1.0%	-11	-0.1	-2%	-22%
CN(C1CCCC1)C1CCN(C(=O)CNC(=O)/C=C/c2cccc(C(F)(F)F)c2)CC1	-0.5	-1.2%	4	-1.2	-3%	-6%
COc1cc(/C=N/N2C(C)CCCC2C)cc(OC)c1O (stereo not drawn)	0.8	-0.9%	-16	-4.8	4%	-41%[inhibitor]
CC1(C)Nc2ccccc2N(Cc2ccc([N+](=O)[O-])cc2)C1=O	2.8	/	-18	-1.6	-14%	8%[15.4 µM]
CC(O)[C@H]1CC[C@H]2[C@@H]3CC[C@H]4C[C@H](O)CC[C@]4(C)[C@H]3[C@H](O)C[C@]12C (stereo partly drawn)	3.9	-3.4%	-5	/	4%	-49%[inhibitor]

Not a hit list, and some 2.1% of all compounds hit somewhere here.
